A1 apoptosis 2 – A1 inhibitors via caspase activation, primary screen, cell-based, luminescence, HTS, two replicates; caspase activation, % (test concentration not listed); MEF A1-2A-BIM cells, caspase-Glo luminescence, 3 h; percent of clofoctol response, DMSO zero; AID 2465, 2010; 24,000 tested, under 10 active; in the data active = caspase activation above about 5.9%; inconclusive = no clear call, values can overlap the other calls; inactive = below about 2.2%;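 also: wells of about 30 µL received 50 nL stock; the first replicate is given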
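system = A1-2A-BIM-expressing MEF cells | quantity = 2500 MEF cells/well | dosing = 50 nL compound per well, pinned | schedule = overnight cell settling, then 3 h compound exposure, 37 °C | signal = luminescence from DEVD-luciferin Caspase-Glo reagent, 1:1 in 50 mM HEPES, 1 h RT | read-out = Caspase-3/7 activation, seen as rise in luminescence signal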
* = called active by the depositor; ? = inconclusive. An excerpt; rates above refer to the full screens.

SMILES | A1 apoptosis 2
COc1ccc(NC(=O)N(C)C[C@@H]2Oc3ccc(NC(=O)Cc4ccccc4)cc3C(=O)N([C@H](C)CO)C[C@H]2C)cc1 | -0.7
C[C@H](CO)N1C[C@H](C)[C@H](CN(C)S(=O)(=O)c2ccccc2)OCCCC[C@H](C)Oc2ccc(NC(=O)C3CCCCC3)cc2C1=O | -0.3
C[C@@H]1CN([C@@H](C)CO)C(=O)c2cc(NC(=O)Nc3ccccc3)ccc2O[C@@H](C)CCCCO[C@@H]1CN(C)CC1CCCCC1 | -0.6
COc1ccc(S(=O)(=O)N(C)C[C@H]2OCCCC[C@H](C)Oc3ccc(NS(=O)(=O)c4ccc(Cl)cc4)cc3C(=O)N([C@H](C)CO)C[C@H]2C)cc1 | -0.4
C[C@H]1CN([C@@H](C)CO)C(=O)Cc2cc(NC(=O)Nc3ccccc3)ccc2O[C@H]1CN(C)Cc1ccc(C(=O)Nc2ccccc2N)cc1 | -0.4
C[C@H](CO)N1C[C@H](C)[C@H](CN(C)C)Oc2ccc(NS(=O)(=O)c3ccccc3)cc2C1=O | -0.1
Cc1ccc(S(=O)(=O)N(C)C[C@H]2OCCCC[C@H](C)Oc3ccc(NS(=O)(=O)c4ccc(F)cc4)cc3C(=O)N([C@@H](C)CO)C[C@H]2C)cc1 | 0.6
C[C@H](CO)N1C[C@H](C)[C@@H](CN(C)C(=O)Nc2ccc(F)cc2)OCCCC[C@H](C)Oc2ccc(NS(=O)(=O)c3ccccc3)cc2C1=O | 1.1
C[C@@H]1CCCCO[C@@H](CN(C)Cc2ccc(C(=O)O)cc2)[C@@H](C)CN([C@@H](C)CO)C(=O)c2cc(NS(=O)(=O)c3cn(C)cn3)ccc2O1 | 1.1
C[C@H](CO)N1C[C@H](C)[C@@H](CN(C)S(=O)(=O)c2cn(C)cn2)Oc2c(NC(=O)C3CC3)cccc2C1=O | 0.6
C[C@H](CO)N1C[C@H](C)[C@H](CN(C)C(=O)Nc2cccc3ccccc23)Oc2c(NC(=O)C3CCOCC3)cccc2C1=O | -0.5
C[C@H](CO)N1C[C@H](C)[C@@H](CN(C)Cc2ccccc2)OCCCC[C@H](C)Oc2ccc(NC(=O)Cc3ccccc3)cc2C1=O | 0.2
Cc1noc(C)c1NC(=O)N(C)C[C@H]1OCCCC[C@H](C)Oc2ccc(NC(=O)CCC(F)(F)F)cc2C(=O)N([C@H](C)CO)C[C@@H]1C | -0.7
C[C@H]1CN([C@@H](C)CO)C(=O)Cc2cc(NC(=O)CCCCCC(=O)Nc3ccccc3N)ccc2O[C@H]1CN(C)Cc1ccc2c(c1)OCO2 | 0.7
C[C@H]1CN([C@@H](C)CO)C(=O)CCCn2nncc2CO[C@H]1CN(C)C(=O)c1ccccc1 | -0.4
CNC[C@H]1Oc2ccc(NC(=O)NC3CCCCC3)cc2CC(=O)N([C@H](C)CO)C[C@H]1C | -0.6
C[C@H]1CCCCO[C@@H](CN(C)S(=O)(=O)c2ccc(Cl)cc2)[C@@H](C)CN([C@@H](C)CO)C(=O)c2cc(NS(=O)(=O)c3ccc(F)cc3)ccc2O1 | 0.6
C[C@@H]1CN([C@@H](C)CO)C(=O)c2cc(NS(=O)(=O)c3ccc(Cl)cc3)ccc2O[C@@H]1CN(C)S(C)(=O)=O | 0.0
Cc1noc(C)c1NC(=O)Nc1cccc2c1O[C@@H](CN(C)S(=O)(=O)c1ccccc1)[C@H](C)CN([C@@H](C)CO)C2=O | -0.3
COc1ccc(S(=O)(=O)N(C)C[C@H]2OCCCC[C@@H](C)Oc3ccc(NS(=O)(=O)c4ccc(C)cc4)cc3C(=O)N([C@@H](C)CO)C[C@@H]2C)cc1 | -0.4
Cc1noc(C)c1S(=O)(=O)N(C)C[C@@H]1Oc2ccc(N(C)C)cc2CC(=O)N([C@H](C)CO)C[C@@H]1C | -0.9
CC(C)NC(=O)Nc1cccc2c1O[C@H](CN(C)Cc1ccccc1)[C@H](C)CN([C@@H](C)CO)C2=O | 2.3
C[C@@H]1CN([C@@H](C)CO)C(=O)Cc2cc(NS(C)(=O)=O)ccc2O[C@@H]1CN(C)Cc1ccncc1 | 2.0
Cc1noc(C)c1NC(=O)Nc1ccc2c(c1)C(=O)N([C@@H](C)CO)C[C@@H](C)[C@@H](CN(C)C(=O)C1CCCCC1)OCCCC[C@H](C)O2 | 0.6
C[C@@H]1CN([C@H](C)CO)C(=O)c2cccc(NC(=O)Nc3ccc(C(F)(F)F)cc3)c2O[C@@H]1CN(C)S(=O)(=O)c1cn(C)cn1 | -0.5

Reprinted from the part before: two entries; new compounds follow.
SMILES | A1 apoptosis 2
Cc1noc(C)c1NC(=O)Nc1ccc2c(c1)C(=O)N([C@@H](C)CO)C[C@@H](C)[C@@H](CN(C)C(=O)C1CCCCC1)OCCCC[C@H](C)O2 | 0.6
C[C@@H]1CN([C@H](C)CO)C(=O)c2cccc(NC(=O)Nc3ccc(C(F)(F)F)cc3)c2O[C@@H]1CN(C)S(=O)(=O)c1cn(C)cn1 | -0.5
C[C@H](CO)N1C[C@H](C)[C@@H](CN(C)C(=O)NC2CCCCC2)Oc2ccc(NC(=O)Nc3ccc(F)cc3)cc2CC1=O | -0.5
C[C@@H]1CCCCO[C@@H](CN(C)C(=O)Nc2ccccc2)[C@H](C)CN([C@@H](C)CO)C(=O)c2cc(NC(=O)CCC(F)(F)F)ccc2O1 | -0.6
CC(C)NC(=O)Nc1ccc2c(c1)CC(=O)N([C@H](C)CO)C[C@H](C)[C@H](CN(C)C(=O)Nc1cccc3ccccc13)O2 | 0.8
CCO[C@H]1OC(C(=O)O)=C[C@@H](C2CCCCC2)[C@@H]1CCCO | -0.9
C[C@H](CO)N1C[C@H](C)[C@H](CN(C)Cc2ccc(C(=O)O)cc2)OCCCC[C@H](C)Oc2ccc(NS(=O)(=O)c3ccccc3)cc2C1=O | -0.2
Cc1noc(C)c1NC(=O)N(C)C[C@@H]1Oc2c(NC(=O)c3ccncc3)cccc2C(=O)N([C@@H](C)CO)C[C@@H]1C | 0.4
CC(C)=CCC[C@H](C)C/C=N/NC(=O)CCCCCC(=O)O | 1.6
Cc1noc(C)c1S(=O)(=O)Nc1cccc2c1O[C@H](CN(C)Cc1ccc(Oc3ccccc3)cc1)[C@H](C)CN([C@H](C)CO)C2=O | 0.2
C[C@H](CO)N1C[C@H](C)[C@H](CN(C)Cc2ccccc2C(F)(F)F)OCc2cnnn2CCCC1=O | -1.3
Cc1noc(C)c1S(=O)(=O)Nc1ccc2c(c1)CC(=O)N([C@H](C)CO)C[C@@H](C)[C@H](CN(C)C)O2 | 0.1
C[C@@H]1CCCCO[C@H](CN(C)C(=O)CCC(F)(F)F)[C@H](C)CN([C@H](C)CO)C(=O)c2cc(NS(=O)(=O)c3cccs3)ccc2O1 | -0.7
Cc1ccc(S(=O)(=O)N(C)C[C@H]2OCCCC[C@H](C)Oc3ccc(NC(=O)Nc4ccc5c(c4)OCO5)cc3C(=O)N([C@@H](C)CO)C[C@H]2C)cc1 | -0.3
C[C@H]1CN([C@@H](C)CO)C(=O)Cc2cc(NS(=O)(=O)c3ccc(F)cc3)ccc2O[C@@H]1CN(C)Cc1ccc(C(=O)O)cc1 | 1.2
COc1ccc(NC(=O)N(C)C[C@H]2Oc3ccc(NC(=O)Cc4cn(C)c5ccccc45)cc3CC(=O)N([C@@H](C)CO)C[C@H]2C)cc1 | 1.8
C[C@@H]1CN([C@@H](C)CO)C(=O)Cc2cc(NC(=O)NC3CCCCC3)ccc2O[C@H]1CN(C)Cc1ccccc1 | 0.2
COc1ccc(S(=O)(=O)Nc2ccc3c(c2)C(=O)N([C@@H](C)CO)C[C@@H](C)[C@@H](CN(C)C(=O)Nc2cccc4ccccc24)OCCCC[C@@H](C)O3)cc1 | -0.4
C[C@@H]1CCCCO[C@H](CN(C)S(=O)(=O)c2cn(C)cn2)[C@H](C)CN([C@@H](C)CO)C(=O)c2cc(NS(=O)(=O)c3cn(C)cn3)ccc2O1 | -0.3
C[C@H]1CN([C@@H](C)CO)C(=O)c2cccc(NC(=O)Nc3ccc(C(F)(F)F)cc3)c2O[C@H]1CN(C)C(=O)NC1CCCCC1 | -0.6
COc1ccc(S(=O)(=O)N(C)C[C@H]2Oc3ccc(NS(=O)(=O)c4c(C)noc4C)cc3CC(=O)N([C@H](C)CO)C[C@@H]2C)cc1 | 0.6
C[C@H]1CCCCO[C@H](CN(C)Cc2ccccc2)[C@@H](C)CN([C@@H](C)CO)C(=O)c2cc(NS(=O)(=O)c3cn(C)cn3)ccc2O1 | 0.4
C[C@H](CO)N1C[C@H](C)[C@@H](CN(C)C)Oc2c(NC(=O)CCCCCC(=O)Nc3ccccc3N)cccc2C1=O | 0.6
C[C@@H]1CN([C@H](C)CO)C(=O)c2cc(NC(=O)c3ccncc3)ccc2O[C@@H](C)CCCCO[C@H]1CN(C)C(=O)Nc1ccc(C(F)(F)F)cc1 | ?
C[C@H](CO)N1C[C@H](C)[C@H](CN(C)C)Oc2ccc(NS(C)(=O)=O)cc2C1=O | -1.1
C[C@@H]1CCCCO[C@H](CN(C)Cc2ccncc2)[C@@H](C)CN([C@@H](C)CO)C(=O)c2cc(NC(=O)CCCN(C)C)ccc2O1 | -0.8
C[C@H](CO)N1C[C@H](C)[C@H](CN(C)Cc2ccc(C(F)(F)F)cc2)Oc2ccc(NC(=O)CCC(F)(F)F)cc2C1=O | -1.2

Compounds shown so far that have an aryl methoxy group (6):
SMILES | A1 apoptosis 2
COc1ccc(NC(=O)N(C)C[C@@H]2Oc3ccc(NC(=O)Cc4ccccc4)cc3C(=O)N([C@H](C)CO)C[C@H]2C)cc1 | -0.7
COc1ccc(S(=O)(=O)N(C)C[C@H]2OCCCC[C@H](C)Oc3ccc(NS(=O)(=O)c4ccc(Cl)cc4)cc3C(=O)N([C@H](C)CO)C[C@H]2C)cc1 | -0.4
COc1ccc(S(=O)(=O)N(C)C[C@H]2OCCCC[C@@H](C)Oc3ccc(NS(=O)(=O)c4ccc(C)cc4)cc3C(=O)N([C@@H](C)CO)C[C@@H]2C)cc1 | -0.4
COc1ccc(NC(=O)N(C)C[C@H]2Oc3ccc(NC(=O)Cc4cn(C)c5ccccc45)cc3CC(=O)N([C@@H](C)CO)C[C@H]2C)cc1 | 1.8
COc1ccc(S(=O)(=O)Nc2ccc3c(c2)C(=O)N([C@@H](C)CO)C[C@@H](C)[C@@H](CN(C)C(=O)Nc2cccc4ccccc24)OCCCC[C@@H](C)O3)cc1 | -0.4
COc1ccc(S(=O)(=O)N(C)C[C@H]2Oc3ccc(NS(=O)(=O)c4c(C)noc4C)cc3CC(=O)N([C@H](C)CO)C[C@@H]2C)cc1 | 0.6

Continued:
SMILES | A1 apoptosis 2
Cc1ccc(S(=O)(=O)Nc2ccc3c(c2)C(=O)N([C@@H](C)CO)C[C@@H](C)[C@@H](CN(C)Cc2ccc(C(F)(F)F)cc2)OCCCC[C@H](C)O3)cc1 | -1.5
C[C@@H]1CN([C@@H](C)CO)C(=O)Cc2cc(NC(=O)c3ccncc3)ccc2O[C@H]1CN(C)S(=O)(=O)c1ccccc1 | -0.2
C[C@H](CO)N1C[C@H](C)[C@H](CN(C)Cc2ccccc2)Oc2ncc(Br)cc2C1=O | -0.3
O=C(O)CCCCCC(=O)N/N=C/c1c(O)ccc2ccccc12 | -0.7
C=CCNC(=O)[C@H]1[C@@H]2C(=O)O[C@@H](c3ccccc3)[C@@H](c3ccccc3)N2[C@@H](c2ccc(O)cc2)[C@]12C(=O)N(C(=O)OCCOC)c1ccccc12 | 0.3
Cc1noc(C)c1S(=O)(=O)Nc1ccc2c(c1)C(=O)N([C@@H](C)CO)C[C@@H](C)[C@@H](CN(C)C(=O)C1CCCCC1)OCCCC[C@@H](C)O2 | 0.5
C[C@H](CO)N1C[C@H](C)[C@@H](CN(C)CC2CC2)Oc2ccc(NS(=O)(=O)c3ccc(F)cc3)cc2C1=O | -1.2
C[C@@H]1CCCCO[C@H](CN(C)C(=O)Nc2ccccc2)[C@H](C)CN([C@H](C)CO)C(=O)c2cc(NS(=O)(=O)c3cn(C)cn3)ccc2O1 | 2.0
C[C@H]1CN([C@@H](C)CO)C(=O)c2cc(NS(=O)(=O)c3cn(C)cn3)ccc2O[C@@H]1CN(C)Cc1ccc(Cl)c(Cl)c1 | -0.7
C[C@@H]1CCCCO[C@H](CN(C)Cc2ccc(C(=O)Nc3ccccc3N)cc2)[C@@H](C)CN([C@H](C)CO)C(=O)c2cc(NS(=O)(=O)c3ccccc3)ccc2O1 | -1.3
C[C@@H]1CN([C@H](C)CO)C(=O)c2cc(NC(=O)CCCN(C)C)ccc2O[C@H]1CN(C)Cc1ccncc1 | -1.6
C[C@@H]1CN([C@@H](C)CO)C(=O)c2cc(N(C)C)ccc2O[C@@H](C)CCCCO[C@@H]1CN(C)S(=O)(=O)c1ccccc1 | -0.6
Cc1noc(C)c1NC(=O)Nc1ccc2c(c1)CC(=O)N([C@H](C)CO)C[C@@H](C)[C@@H](CN(C)S(=O)(=O)c1cn(C)cn1)O2 | -1.7
[N-]=[N+]=Nc1ccccc1C[C@]1(C(=O)N2CCCCC2)N=C(c2ccc(OCCCO)cc2)O[C@H]1c1ccccc1 | 1.0
C[C@@H]1CCCCO[C@H](CN(C)Cc2ccc3c(c2)OCO3)[C@H](C)CN([C@H](C)CO)C(=O)c2cc(NS(=O)(=O)c3ccc(Cl)cc3)ccc2O1 | 1.9
CC(C)NC(=O)N(C)C[C@@H]1Oc2ccc(NC(=O)C3CC3)cc2CC(=O)N([C@@H](C)CO)C[C@H]1C | -0.5
C[C@H]1CN([C@@H](C)CO)C(=O)c2cc(NC(=O)C3CC3)ccc2O[C@H]1CN(C)C(=O)Nc1ccc2c(c1)OCO2 | 1.0
COc1ccc(CN(C)C[C@@H]2Oc3ccc(NS(=O)(=O)c4cccs4)cc3C(=O)N([C@@H](C)CO)C[C@H]2C)cc1 | 1.3
CNC[C@@H]1Oc2c(NC(=O)Nc3c(C)noc3C)cccc2C(=O)N([C@H](C)CO)C[C@@H]1C | 0.1

Screening data from PubChem BioAssay.
